Compound activity from PubChem.
PINK1 modulator = PINK1 expression modulation. PINK1 immunofluorescence, high-content cytometry, 24 h. Potency, µM (highest dose often 76.6 µM), inactives show at the highest dose activation (PINK1 increase), most hits filed as activators. 0.2% of 410,000 active; active = well fitted activation curve with a large enough effect; inconclusive = small, poorly fitted or top-dose-only effect; inactive = flat fitted curve, though single readings scatter; cell line not stated here;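 further: potency means the concentration at half of the fitted maximal effect; % of control where 0% means no effect; nearly all actives have a fitted effect of over 65% in size; a mitochondrial uncoupler was the plate control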
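Measures PINK1 amount and localization on or inside mitochondria by immunofluorescence. Stable cells get compounds at 5 concentrations for 24 hours before fixation and staining; CCCP controls included.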
D2 ag = agonists of human D2 dopamine receptor (beta-arrestin) | P14416 | activation, % (test concentration not listed) | DiscoveRx PathHunter D2 beta-arrestin, luminescence, 90 min; 100% = 57 uM dopamine signal | 0.084% of 360,000 active | AID 624465; in the data active = activation above about 40%; inconclusive = about 15% to 40%; inactive = below about 15%; further: compound concentration not given in the record; the text of the record calls up to 30% inactive
Target sequence (P14416 whole entry, looked up): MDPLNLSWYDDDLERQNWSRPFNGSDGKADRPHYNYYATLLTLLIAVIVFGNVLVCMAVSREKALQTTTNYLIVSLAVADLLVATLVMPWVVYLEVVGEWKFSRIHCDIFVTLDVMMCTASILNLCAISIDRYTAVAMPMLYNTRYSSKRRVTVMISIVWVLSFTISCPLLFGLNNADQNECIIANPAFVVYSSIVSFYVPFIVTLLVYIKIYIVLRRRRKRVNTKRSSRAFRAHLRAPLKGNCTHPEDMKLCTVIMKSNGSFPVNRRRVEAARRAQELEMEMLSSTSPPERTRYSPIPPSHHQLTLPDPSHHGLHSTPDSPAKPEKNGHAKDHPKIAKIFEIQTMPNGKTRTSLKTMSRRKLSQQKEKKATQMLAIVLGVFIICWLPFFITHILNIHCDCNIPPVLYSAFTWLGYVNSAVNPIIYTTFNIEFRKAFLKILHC
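Agonist mode: compounds alone added to overnight-plated D2 PathHunter cells for 90 min at 37 C, with 57 uM final dopamine (EC100) defining full response. Beta-arrestin recruitment detected by chemiluminescent reagent, read after 1 h at ambient temperature.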
Menin-MLL FL inh = menin-MLL binding inhibition, fluorescein peptide. FP activity change, % at 61.4 µM. 290,000 tested, under 10 active. AID 1766. Fluorescence polarization, fluorescein-MLL peptide displacement from menin; inconclusive = falling polarisation curve, or a change in total fluorescence; inactive = total fluorescence flat and polarisation flat or rising; no compound was filed as active; the % refers to the polarisation; negative = inhibition;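 further: % of control where 0% means no effect; inhibitors lower the polarisation; unlabelled MLL peptide was the positive control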
Sfp inh = blocks B. subtilis Sfp PPTase activity; Q9F4F7; Biochemical Sfp PPTase activity, qHTS; AID 1490; 3.5% of 310,000 active; Potency, µM, without a hit: max response, negative = inhibition, actives largely listed as inhibitors; active means well fitted inhibition curve with a large enough effect; inconclusive means small, poorly fitted or top-dose-only effect, or another doubt; inactive means no such curve, though single readings can be large or run the other way;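 further: the enzyme is Sfp with the accession as filed and its product quenches rhodamine fluorescence; potency means the concentration at half of the fitted maximal effect; 0% = enzyme reaction without inhibitor and -100% = no enzyme wells; top concentration of the series not given in the record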
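After 15 min at room temperature with compound, 15 nM Sfp received 5 uM rhodamine-CoA plus 12.5 uM BHQ-2-ybbR (50 mM Hepes pH 7.6, 10 mM MgCl2). Rate came from the fluorescence difference over 30 min, ex 525/em 598 nm.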
gsp agonist = gsp mutant agonism; gsp mutant cells, cAMP HTRF, 30 min; control for the full effect not named in the record; Potency, µM (series often up to 76.9 µM), for inactives: at the highest dose activation (cAMP increase), most hits filed as activators; 0.13% of 340,000 active; active = well fitted activation curve with a large enough effect; inconclusive = small, poorly fitted or top-dose-only effect, or another doubt; inactive = no such curve, though single readings can be large or run the other way; cell line not stated here;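 further: phosphodiesterase inhibitor Ro 20-1724 added with compounds to block cAMP breakdown; potency means the concentration at half of the fitted maximal effect; nearly all actives have a fitted effect of over 60% in size; about a fifth of the inactives were tested at one dose only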
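Cells in DMEM/10% FBS with G418 were pretreated with compounds in DMSO plus […] (300 uM stock) for 30 min at 37C. cAMP was measured by HTRF (cAMP-d2 plus anti-cAMP antibody-K) after 30 min at room temperature.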
gsp antagonist = gsp mutant antagonism; 0.4% of 340,000 active; AID 624288; Potency, µM (series often up to 76.9 µM), inactives show top-dose activity change, negative = inhibition, most hits filed as inhibitors; gsp-mutant cells, cAMP HTRF, 30 min; control for the full effect not named in the record; active = falling curve of any shape with a large fitted effect; inconclusive = falling curve, mostly with a smaller effect; inactive = flat or rising curve; cell line not stated here;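 further: intracellular cAMP measured with PDE inhibitor Ro 20-1724 present during compound exposure; potency means the concentration at half of the fitted maximal effect; on the % scale 0 is the no-effect control and ±100 the full control effect; nearly all actives have a fitted effect of over 65% in size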
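HTRF cAMP measurement after 30 min RT detection following 30 min, 37C compound treatment alongside […] (added as 300 uM solution) in G418-selected cells seeded at 2000/well and grown 16–24 h.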
ClpP mod = qHTS Assay for Activators of ClpP; purified B. subtilis ClpP, FRET peptide cleavage, 20 min; ATP-dependent Clp protease proteolytic subunit (Bacillus subtilis (strain 168)), P80244; 1.9% of 340,000 active; Potency, µM (top dose mostly 57.5 µM), without a hit: at the top dose activity change, negative = active; active = well fitted falling curve with a large enough effect; inconclusive = small, poorly fitted or top-dose-only effect; inactive = no such curve, though single readings can be large or run the other way; further: potency means the concentration at half of the fitted maximal effect; the source files actives as falling curves though it sought activators and does not explain the sign; nearly all actives have a fitted effect of over 65% in size; many hits overshoot -100%
Target sequence (P80244 whole entry, looked up): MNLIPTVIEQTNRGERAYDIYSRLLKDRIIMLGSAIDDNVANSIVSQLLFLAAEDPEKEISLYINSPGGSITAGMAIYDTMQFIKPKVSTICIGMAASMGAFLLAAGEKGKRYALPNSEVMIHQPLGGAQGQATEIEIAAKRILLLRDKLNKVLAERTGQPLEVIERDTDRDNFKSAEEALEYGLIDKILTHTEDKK
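Buffer: 100 mM Tris/HCl pH8, 100 mM KCl, 0.05% low protease BSA, 2.5% glycerol, 0.01% Tween-20. ClpP 10 microg/mL final; 20 min RT; delta FRET normalized to ADEP and DMSO controls.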
* marks the source's active call; other numbers are inactive results; ? = inconclusive; . = no result given; [ ] = dose if it differs, or a comment.

cpd	smiles	PINK1 modulator	Sfp inh	gsp antagonist	gsp agonist	Menin-MLL FL inh	D2 ag	ClpP mod
1	CN1C(=O)/C(=C\C(=O)c2cccs2)c2ccccc21	-1.8%	45µM*	-2%	34%[15.4 µM]	-0.5	-5.5	.
2	Cc1onc(-c2ccccc2)c1C(=O)NCC(O)c1ccccc1 (stereo unspecified)	-0.2%	23%	8%	10%	1.7	-1.7	2.1%
3	O=C(c1ccc([N+](=O)[O-])o1)N1CCCCCC1	1.2%	.	8%	-29%	.	10	-0.4%
4	CC(=O)Nc1ccc(S(=O)(=O)N2CCC(N3CCCC3)CC2)cc1	-1.3%	-4%	10%	-44%[inhibitor]	.	-0.4	-0.9%
5	CCC(C)N(C(=O)COC(=O)CNC(=O)c1sc2ccccc2c1Cl)C1CCS(=O)(=O)C1 (stereo unspecified)	0.1%	7%	1%	14%	-1.0	-1.3	-7.2%
6	CC(C)CCN(C)c1ccc(/C=N/n2cnnc2)cc1	2.1%	6%	3%	-28%	0.9	2.1	-21%
7	COc1cc2c(cc1OC)C(c1cccc([N+](=O)[O-])c1)N(C(=O)c1ccc(F)cc1)CC2 (stereo unspecified)	2.9%	0%	-15%	?	0.6	-3.6	0.9%
8	Cc1ccc(S(=O)(=O)c2c(C)c(C)c(C)[nH]c2=O)cc1	-1.2%	16%	11%	-28%	-0.7	2.8	-18%
9	CCC(CC)C(=O)c1c[nH]c(C(=O)NC2CCCCCC2)c1	-0.7%	15%	4%	11%	.	-5.3	-1.9%
10	Cc1cc(C(=O)COC(=O)Cn2c(C(F)(F)F)nc3ccccc32)c(C)n1Cc1ccco1	26%	?	-10%	5%	-0.1	-2.4	3.8%
11	O=C(CNC(=O)c1ccc(Br)cc1)N/N=C/c1cccnc1	-1.1%	4%	0%	3%	.	-7.6	-2.8%
12	C=C1CCN([C@@H](Cc2ccccc2)C(=O)NC2CCN(Cc3ccccc3)CC2)S(=O)(=O)c2ccccc21	-1.1%	.	6%	-7%	.	-3.7	-1.3%
13	Cc1ccc(OCC(O)CNC2CCCC2)cc1C (stereo unspecified)	1.6%	-4%	10%	22%	-1.5	0.1	.
14	CN(Cc1ccccc1)C(=O)c1ccccc1-c1ccccc1	-0.9%	6%	.	-1%[15.4 µM]	-9.9	-0.5	.
15	Cc1oc(/N=C/c2cccc3ccccc23)c(C#N)c1C	0.8%[38.3 µM]	0%	-5%	-11%	1.1	1.1	-8.8%
16	COc1ccc(Nc2nc3[nH]c(=O)cc(O)c3s2)cc1	12%	4µM*	-4%	-2%[15.4 µM]	?	3.7	.
17	CCOC(=O)c1[nH]c2ccc(F)cc2c1NC(=O)c1cc(OC)c(OC)c(OC)c1	1.0%	-4%	9%	?	-0.7	0.2	1.1%
18	CNC(=O)OCN1C(=O)C2CC=CCC2C1=O (stereo unspecified)	0.7%	.	7%	21%	.	-3.4	.
19	O=C(NCc1ccc2c(c1)OCO2)C(=O)NCC1OCCCN1S(=O)(=O)c1ccc(F)cc1 (stereo unspecified)	-1.3%	17%	8%	?	.	-0.3	-0.1%
20	Cc1cc2cc(CNC(=O)C(C)Oc3ccccc3)ccc2n1C (stereo unspecified)	2.4%	-13%	0%	?	0.9	-1.8	-2.6%
21	CCNC(=O)NC(=O)C(C)Sc1ncc(C(F)(F)F)cc1Cl (stereo unspecified)	0.9%	14%	-4%	-6%[15.4 µM]	-0.1	-2.6	.
22	CC(C)CN(CC(C)C)S(=O)(=O)N1CCC(C(=O)N2CCc3ccccc3C2)CC1	-0.6%	7%	0%	26%[15.4 µM]	0.8	0.9	-1.8%
23	O=C(NNC(=O)c1cc2ccccc2oc1=O)c1ccccc1[N+](=O)[O-]	2.2%	7%	-3%	?	3.7	-1.4	-4.4%
24	Cc1ccc(NC(=O)CCNS(=O)(=O)c2ccc3[nH]c(=O)oc3c2)cc1C	-1.6%	5%	2%	18%	0.2	-1.0	-2.2%
25	Cc1ccc(C(=O)Cc2ccccc2)c(O)c1	15%	.	4%	-31%[inhibitor]	.	0.8	.
26	CCOC(=O)CSC1=C(C#N)C(c2ccc(C)cc2)C2=C(CCCC2=O)N1 (stereo unspecified)	0.2%	2%	-8%	2%	0.1	-1.7	-11%
27	CCOc1ccccc1C(=O)NC(C)CCc1ccccc1 (stereo unspecified)	3.3%	.	-3%	-11%	.	-4.5	3.9%
28	COc1cccc(C(=O)NCC(=O)N/N=C/c2ccc(OC(=O)c3cccs3)c(OC)c2)c1	0.6%	-1%	-15%	0%[15.4 µM]	2.9	-1.1	1.5%
29	c1coc(-c2nn3c(-c4ccco4)nnc3s2)c1	1.4%	-12%	-1%	27%	-1.3	-1.8	-4.5%
30	COc1ccc(C2CC(c3ccccc3)=NN2c2ccc(N)cc2)cc1 (stereo unspecified)	?	-11%	-4%	0%	4.2	13	1.0%

Next part (2 carried over from the part before).
cpd	smiles	PINK1 modulator	Sfp inh	gsp antagonist	gsp agonist	Menin-MLL FL inh	D2 ag	ClpP mod
29	c1coc(-c2nn3c(-c4ccco4)nnc3s2)c1	1.4%	-12%	-1%	27%	-1.3	-1.8	-4.5%
30	COc1ccc(C2CC(c3ccccc3)=NN2c2ccc(N)cc2)cc1 (stereo unspecified)	?	-11%	-4%	0%	4.2	13	1.0%
31	N#C/C(=C\c1ccc[nH]1)Sc1nc2ccccc2s1	5.4%	?	-2%	-15%	4.3	-2.4	-1.6%
32	COc1cc(C(=O)NC(=S)Nc2ccc3[nH]c(=O)[nH]c3c2)cc(OC)c1OC	3.2%	-9%	6%	-6%[15.4 µM]	-1.9	0.6	.
33	NC(=O)NC(=O)COC(=O)[C@H](Cc1ccccc1)NC(=O)c1cccs1	1.2%	7%	4%	0%[15.4 µM]	2.5	-1.8	0.8%
34	Cc1ccc(C)c(-c2nc3ccc(N)cc3[nH]2)c1	8.6%	-5%	-4%	?	1.2	1.8	49%
35	CC(/C=C(\NC(=O)c1ccccc1)C(=O)N=Nc1c(O)[nH]c2ccc(C)cc12)=C\c1ccccc1	1.9%	9%	-10%	-47%[inhibitor]	4.0	-1.4	-5.3%
36	O=C(NCCc1nc(-c2ccc(F)cc2)no1)c1ccc(F)cc1	2.5%	.	-7%	.	.	0.5	-1.4%
37	Cc1ccc(-c2n[nH]c3c2C(c2ccccc2)N(c2ccc(C(=O)O)cc2)C3=O)cc1 (stereo unspecified)	-0.3%	-9%	0%	17%[15.4 µM]	1.4	-1.0	.
38	O=C(NCCC(=O)N1CCN(c2ncccn2)CC1)c1ccccc1	-3.1%	9%	11%	7%	0.8	0.9	-15%
39	CC(=O)Nc1ccc(S(=O)(=O)NC2(C(F)(F)F)C(=O)NC(C)=C2C#N)cc1 (stereo unspecified)	-1.3%	-1%	1%	-15%	-9.5	-0.4	.
40	COc1ccc(C(=O)CCNc2cccc(Cl)c2)cc1	10%	25%	-1%	-14%[15.4 µM]	6.6	-6.9	-2.3%
41	CC(=O)Nc1c(C#N)c(C(C)(C)C)cn1C	-0.8%[38.3 µM]	0%	-3%	-45%[inhibitor]	1.9	-2.1	-1.2%
42	COc1cc(C2C3C(=O)N(c4ccccc4)C(=O)C3ON2c2ccccc2)cc(OC)c1OC (stereo unspecified)	1.9%	14%	3%	11%	0.9	-0.5	1.4%
43	CNC(=O)C1=C(C)Nc2nc3ccccc3n2C1c1ccc(F)cc1 (stereo unspecified)	-3.1%	9%	-4%	4%[15.4 µM]	-0.4	-0.6	.
44	O=C(CS(=O)(=O)c1ccccc1)Nc1nnc(Cc2ccccc2)s1	-0.4%	45µM*	?	14%	0.2	1.2	1.0%
45	COCCNC(=S)N(CCc1c(C)[nH]c2ccc(OC)cc12)Cc1cccnc1	0.2%	4%	-1%	14%	-0.3	-0.4	-2.8%
46	Cc1nc2cnc(N3CCNCC3)nc2n(-c2ccccc2)c1=O	-0.8%	21%	.	.	13	.	.
47	O=S(=O)(Nc1ccc(-c2nnc(SCc3ccc(Cl)cc3)o2)cc1)c1ccccc1	29%	14%	-10%	-9%	4.6	1.5	-8.2%
48	COC(=O)c1cc(-c2ccc(F)cc2)n(-c2ccccc2)n1	0.7%	2%	-5%	12%	9.7	-1.4	.
49	CC(C)CC(=O)NC(=S)Nc1ccc(S(=O)(=O)N2CCCC2)cc1	-0.9%	11%	-8%	14%[15.4 µM]	3.6	3.6	.
50	CCN1CNC(=S)N(Cc2ccccc2)C1	1.4%	1%	4%	-48%[inhibitor]	2.5	-3.5	0.5%
51	CCOC(=O)c1sc2nc(NC(=O)C(C)(C)C)sc2c1C	?	3%	32µM*	0%	5.3	4.9	4.6%
52	CN(C)c1ccc(/C=N/NC(=O)CN2CCCCC2)cc1Br	-0.6%	0%	-8%	-4%	7.1	-0.2	-1.4%
53	Cc1cc(NC(=O)c2noc3c2CCCCC3)nn1Cc1ccc(Cl)cc1	0.5%[38.3 µM]	24%	7%	-5%	0.2	0.7	269%
54	CCOc1ccc(Oc2nc(NCC(C)C)nc(OC)n2)nn1	2.0%	23%	6%	2%	0.0	2.1	1.5%
55	O=C(CCc1nnc(C2CCCCC2)o1)NCc1cccc(-n2cccn2)c1	0.4%	15%	-2%	1%	-0.4	0.7	.
56	CC(NC(=O)c1ccccc1)c1nc2ccccc2n1Cc1ccc(C#N)cc1 (stereo unspecified)	2.2%	14%	-2%	-1%	3.3	-0.1	0.7%
57	Cc1ccc(C(O)c2ccncc2)cc1 (stereo unspecified)	6.5%[38.3 µM]	2%	-9%	15%	3.5	-3.3	-1.3%
58	O=C1COc2ccc(S(=O)(=O)N3CCN(c4cccc(Cl)c4)CC3)cc2N1	1.3%	2%	3%	-1%	.	-2.3	-4.1%
59	COc1ccc(OC)c(NC(=O)C(CC(=O)O)NCc2ccco2)c1 (stereo unspecified)	-0.4%	-24%	4%	0%	1.1	-0.3	-7.9%
60	CCC(C)(C(=O)NC1CCCCC1)N(CC1CCCO1)C(=O)c1ccccn1 (stereo unspecified)	-3.4%	12%	10%	5%	1.6	1.5	0.2%
